Assay outcomes from PubChem BioAssay.
Env fusion inh = inhibitors of HIV Env-mediated cell fusion. HeLa-JRFL Env/CEM21 cell fusion, luciferase. inhibition, % at 12.3 µM. actives 1.1% (n = 360,000);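 active = mean replicate inhibition score of at least 50 and every replicate individually at or above 50; inconclusive = only one of the two criteria met; inactive = mean below 50 and not all replicates reaching 50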;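 also: 0% = plate neutral controls and 100% = maraviroc near 300 nM; one replicate is shown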
MT1-MMP act inh = inhibitors of human MT1-MMP activation. HT1080 RFP-PRO-GFP cells, GFP/RFP ratio fluorescence, overnight; percent of plate control window, DMSO zero. actives 0.061% (n = 360,000). P50281. GFP/RFP ratio change, % at 20 µM;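 active = GFP/RFP ratio change of at least 30% with cell ATP level not reduced by more than half and red fluorescence within 50% of control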; also: strong numbers were not always called active
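Assay system – RFP-PRO-GFP reporter HT1080 cells · Compound dosing – single dose of 20 µM compound, 1% DMSO final · Incubation – overnight compound exposure at 37 °C · Measure – GFP/RFP fluorescence ratio · Benchmarks – DMSO wells and RFP-L50D-GFP cells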
MT1-MMP act inh RFP = also measured in MT1-MMP act inh; calls as there; RFP signal change, %; measured here: RFP expression control read;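 0 = vehicle wells; hits needed this value within 50% of zero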
The depositor's hits bear a star; i = inactive; ? = inconclusive. The list is partial; count on the stated rates, not on these rows.

SMILES	Env fusion inh	MT1-MMP act inh	MT1-MMP act inh RFP
O=C(Nc1ccc2c(c1)OCCO2)C(c1ccccc1F)n1c(=O)c(-c2cc3ccccc3[nH]2)nc2ccccc21 (stereo not drawn)	-22	-10	-11
CC(C)N(C)c1ncnc2c1ncn2[C@H]1CN(CCN2CCOCC2)C[C@@H](CO)O1	-20	0	8
CCOC(=O)[C@]12CCCC=C1N(Cc1ccco1)C(=O)[C@H](CC(=O)NCc1cccc3ccccc13)C2	-27	0	-4
COc1ccc(OC)c(NP2(=O)OCC(C)([N+](=O)[O-])CO2)c1 (stereo not drawn)	-55	5	5
CC(C)NC(=O)C1(C)CN(S(C)(=O)=O)CC(=O)N1CC(F)(F)F (stereo not drawn)	-10	4	4
CC1(C)OC(=O)C2=C(C[C@@H](C3CCCCC3)O[C@@H]2c2ccc(F)cc2)O1	-2	-2	-2
CCCCNC(=O)c1nc(-c2cccs2)oc1-c1ccc(Cl)cc1	3	-5	-3
O=C1C(Cl)=C(Oc2ccccc2)C(=O)c2ccccc21	-48	-51	24
CC(C)n1nnnc1C1c2ccccc2C(=O)N1CCc1ccc(O)cc1 (stereo not drawn)	1	4	6
COc1ccc(-c2nc3c(Cl)cc(C(F)(F)F)cn3c2Cc2cccc(Cl)c2)cc1OC	-59	-5	-8
O=C1c2ccccc2C(c2nnnn2-c2ccc3c(c2)OCCO3)N1Cc1ccccc1 (stereo not drawn)	3	-1	2
CCCCn1c(N)c(N(CCC(C)C)C(=O)CSc2nncn2-c2ccccc2)c(=O)[nH]c1=O	1	-3	-1
Cc1ccc(Nc2nc(N)nc(N)c2N=O)cc1Cl	5	-1	3
CCCCN(C=O)c1c(CC)nc2c(OCc3ccc(Cl)cc3)cccn12	1	-3	-15
COC(=O)C[C@@H]1C=C[C@@H](NC(=O)CN(C)C)[C@@H](CO)O1	7	-2	5
CCOC(=O)[C@]12CCCC=C1N(Cc1ccc3c(c1)OCO3)C(=O)[C@H](CC(=O)N1CCCCC1)C2	-11	0	-2
N#Cc1ccsc1NC(=O)CCN1C(=O)C2CCCCC2C1=O (stereo not drawn)	-6	-2	5
O=C(NCc1ccccc1)[C@@H]1CCCN1C(=O)[C@@H]1CCCN1C(=O)c1cccc2ccccc12	75*	-1	5
Cc1ccc2c(c1)P(=O)(O)c1cc(C)ccc1O2	-5	0	3
CCN1CCC(O)(/C=C/c2ccc(C)cc2)C(C(=O)/C=C/c2ccc(C)cc2)C1 (stereo not drawn)	-4	-3	-5
CC(C)Nc1nc(NCCO)nc2ccccc12	-2	5	2
CCOc1cc2c(cc1O)C(=NOC)CC1C2CCC2(C)C(O)CCC12 (stereo not drawn)	-30	3	-6
CC(=O)Nc1ccc(C=CC=Cc2cccc([N+](=O)[O-])c2)cc1	-8	4	-8
CCCC1(c2ccsc2)NC(=O)NC1=O (stereo not drawn)	20	0	3
CN(Cc1cn(Cc2ccc(F)cc2)nn1)C1CN(Cc2cn(Cc3ccc(F)cc3)nn2)S(=O)(=O)C1 (stereo not drawn)	?	4	1
CC(C)Oc1ccc(CN2CCC2(C)C(=O)Nc2ccc3c(c2)OCO3)cc1 (stereo not drawn)	-7	1	-5
CC(C)C[C@@H](CN1CCC[C@H]1CN1C(=O)C(=O)NC[C@@H]1Cc1ccccc1)N1C[C@H](Cc2ccc(O)cc2)N(CC2CCCCCC2)C(=O)C1=O	-133	-10	-14
Cc1cc(N2CCN(C(=O)Oc3ccc([N+](=O)[O-])cc3)CC2)c2ccccc2n1	25	1	-22
CCCc1c(-c2cccc(Cl)c2)ncn1Cc1ccccc1OC	19	1	-21
CC(C)NC(=O)C1(C)CSCC(=O)N1C1CCN(Cc2ccccc2)CC1 (stereo not drawn)	-14	-3	3
Cc1ccc(S(=O)(=O)Nc2ccccc2[N+](=O)[O-])cc1	8	8	2
O=[N+]([O-])c1cccc(COc2ccccc2CO)c1	-23	7	5
CC(C)c1ccc([C@@H]2O[C@H](CCc3ccccc3)CC3=C2C(=O)OC(C)(C)O3)cc1	-5	1	-6
COc1cc(-c2c(C(=O)c3ccccc3)[nH]c(N)c2C(N)=O)ccc1F	11	3	5
O=C(NCCN1CCC(n2c(=O)[nH]c3ccccc32)CC1)N1c2ccccc2Sc2ccccc21	7	6	0
CC(C)OC(=O)/C=C1\C[C@@H](c2ccccc2C(F)(F)F)O[C@@H](c2ccccc2C(F)(F)F)O1	22	2	-1
O=C(Nc1ccc(F)cc1)C(c1cccc(F)c1)N1CCN(CC(=O)N2CCCC2)CC1 (stereo not drawn)	10	4	4
Nc1cc2c3ccccc3ccc2c2ccccc12	-63	-8	-7
C=CC(=O)N1C/C(=C/c2ccc(Cl)cc2)C(=O)/C(=C\c2ccc(Cl)cc2)C1	102*	-5	-35
CC1CN(S(=O)(=O)c2cccc(C(=O)Nc3ccccc3N3CCOCC3)c2)CC(C)O1 (stereo not drawn)	13	-6	-9
Cc1cccc(C)c1NC(=O)CN(c1c(C)cccc1C)S(C)(=O)=O	2	7	3
Cc1cc2nc(-c3ccc(F)cc3)c(CC3CCCCC3)n2c(C)c1Br	22	-9	-9
COC(=O)Cn1nnnc1-c1nc2cc(C)c(C)cc2[nH]c1=O	-3	2	4
COC(=O)[C@]12CCCCC=C1N(Cc1ccc3c(c1)OCO3)C(=O)[C@H](CC(=O)N1CCC(c3ccccc3)CC1)C2	19	12	-10
Clc1ccc2c(-c3ccccc3)nc(-c3cccs3)nc2c1	5	4	5
O=C(C(=O)N1CCN(C(=O)c2ccco2)CC1)c1cc2ccccc2o1	9	-1	4
Nc1ccc2c(c1)[nH]c(=O)c1ccccc12	17	4	5
O=C1NC[C@H](Cc2ccc(O)cc2)N(C[C@@H]2CCCN2C[C@H](Cc2ccccc2)N2C[C@H](Cc3ccccc3)N(CC3CCCCCC3)C(=O)C2=O)C1=O	-2	-3	1
Cc1cccc(C)c1NC(=O)C(c1ccncc1)N1CCN(C)CC1 (stereo not drawn)	-5	-1	3
CC(C)(C)OC(=O)C(Oc1ccccc1[N+](=O)[O-])C(=O)OC(C)(C)C	-1	-2	4
CCOC(=O)[C@]12CCC=C1N(Cc1ccco1)C(=O)[C@H](CC(=O)NCCCOC)C2	-7	1	3
COc1ccc(-c2oc3c(c2C#CC2(O)CCCCC2)C(OC(C)=O)CCC3)cc1 (stereo not drawn)	-33	3	-1
Cn1nc(C(=O)Nc2ccccc2N2CCOCC2)ccc1=O	i	-4	2
Cc1ccc(Cn2cc(CN3CC(N4CCCCC4)CS3(=O)=O)nn2)cc1 (stereo not drawn)	11	6	5
CC(C)n1nnnc1C1c2ccccc2C(=O)N1C1CC1 (stereo not drawn)	-1	6	8
CC(C)(C)NC(=O)C(c1ccncc1)n1c(-c2ccc(C(F)(F)F)cc2)nc2ccccc21 (stereo not drawn)	-147	1	-8
O=C1CN(CN2CCCCC2)C(=O)CN1CN1CCCCC1	12	0	2
COC(=O)[C@]12CCCCC=C1N(Cc1cccc3ccccc13)C(=O)[C@H](CC(=O)NCCC(C)C)C2	6	-18	-13
COc1cccc(/C=C/C(=O)NNC(=O)c2ccccc2)c1OC	-26	-1	0
CN(C)CCNC(=O)c1cccc2nc3cccc(F)c3nc12	0	16	19

Going on with the list:
SMILES	Env fusion inh	MT1-MMP act inh	MT1-MMP act inh RFP
Nc1ncnc2c1ccn2[C@H]1CN(Cc2ccc3c(c2)OCO3)C[C@@H](CO)O1	?	1	-12
CC(C)[C@H](NC(=O)OC(C)(C)C)c1cc(C(=O)N[C@@H](C)c2ccccc2)c(N)s1	-39	-16	-8
Cn1cnnc1SCc1ccc(C(=O)N/N=C(/CCC(=O)O)c2ccc(C(C)(C)C)cc2)cc1	15	0	7
CCOC(=O)[C@]12CCCC=C1N(Cc1ccc3c(c1)OCO3)C(=O)[C@H](CC(=O)NCCCCc1ccccc1)C2	-175	3	-13
CC(C)C[C@@H]1Cc2[nH][nH]c(=O)c2[C@H](C)O1	-5	4	0
Cc1cc(C)c2cc(C#N)c(NCCCNC(=O)c3cccnc3)nc2c1	7	5	0
CC1CN(C(=O)[C@@H]2CCCN2S(=O)(=O)c2ccc(Cl)cc2)CC(C)O1 (stereo partly drawn)	-9	1	6
CCOC(=O)N1CCN(C(=O)C[C@@H]2C[C@@]3(C(=O)OCC)CCCC=C3N(Cc3ccco3)C2=O)CC1	-53	2	2
O=C1Cc2ccccc2C(=O)N1	6	7	2
Nc1sccc1C(=O)NC1CC1	-11	-6	6
CCOC(=O)N1CCN(C(=O)C[C@@H]2C[C@@]3(C(=O)OCC)CCC=C3N(Cc3ccc(Cl)cc3Cl)C2=O)CC1	-48	4	-5
Nc1[nH]c(C(=O)c2ccccc2)c(-c2ccc(Cl)cc2Cl)c1C(=O)c1ccc(Br)cc1	-54	3	0
CCOC(=O)N1CCN(C(=O)C[C@@H]2C[C@@]3(C(=O)OC)CCCCC=C3N(CCC3=CCCCC3)C2=O)CC1	29	2	-2
CCC(C(=O)NCc1ccccc1)n1c(C2CCN(C(C)=O)CC2)nc2ccccc21 (stereo not drawn)	9	-1	5
C[C@H](NC(=O)[C@@H]1CCCN1C(=O)[C@@H]1CCCN1C(=O)c1cccc(Cl)c1)c1ccccc1	8	3	4
CC(=O)Nc1ccc(/C(N=Nc2ccccc2)=N/N=C(N)N)cc1	-27	6	3
Cc1ccc(S(=O)(=O)c2ccsc2NC(=O)c2ccccc2)cc1	4	6	-4
O=S(=O)(c1ccc(NC(=S)N2CCCCC2)cc1)N1CCCCC1	7	5	-5
O=C1NC[C@@H](CCCCN2C[C@H](Cc3ccc(O)cc3)N(CCC3CCCCC3)C(=O)C2=O)N(CC2CCCCC2)C1=O	15	7	5
O=C(O)c1cccc2c1-c1ccc(Cl)cc1C2=O	-2	2	4
COC(=O)[C@@]12C[C@@H](CC(=O)N3CCSCC3)C(=O)N(Cc3ccco3)C1=CCC(C)(C)C2	18	3	1
CCN(CC)c1ccc(C=C2SC(=S)NC2=O)cc1	-32	-23	49
CC=CC1OCC(CC)C(CCC)O1 (stereo not drawn)	-6	-6	-1
CCCCC[C@@H](C)N1C[C@H](COCc2ccccc2)Oc2cc(N3CCC[C@H]3COC)ccc2S1(=O)=O	-2	-9	-12
CC(=O)OCC1OC(COC(C)=O)(c2ccc(C)cc2)C(OC(C)=O)C1OC(C)=O (stereo not drawn)	-53	3	2
Cc1cccc(CN2CCN(C3CN(Cc4cn(Cc5cc(C)cc(C)c5)nn4)S(=O)(=O)C3)CC2)c1 (stereo not drawn)	22	4	-7
COc1cccc(NC(=O)C2(C)CCN2Cc2ccc(OC)c3ccccc23)c1 (stereo not drawn)	26	2	-1
O=C(NC1CCCCC1)C(C1CC1)n1c(=O)c(-c2ccco2)nc2ccccc21 (stereo not drawn)	13	-13	8
O=C1NC[C@H](CCCCN2CCN(CCc3ccccc3)C(=O)C2=O)N(CCC2CCCCC2)C1=O	-12	4	7
Cn1c(=O)c2[nH]c(CCCc3nc4ccccc4[nH]3)nc2n(C)c1=O	2	2	1
CC(C)(C)NC(=O)C1c2ccccc2OCC(=O)N1Cc1ccc2c(c1)OCO2 (stereo not drawn)	-20	2	4
Cc1cc2nc(C(C)(C)C)c(Cc3ccsc3)n2c(C)c1Br	-21	-3	-4
CCOC(=O)/C(=N/Nc1ccc(Br)cc1)N1CC(C)OC(C)C1 (stereo not drawn)	-33	1	2
CCCCc1c(-c2ccc(Cl)cc2)ncn1CCc1ccccc1OC	38	-5	-24
CCOC(=O)[C@]12CCCC=C1N(Cc1ccco1)C(=O)[C@H](CC(=O)N1CCC(c3ccccc3)CC1)C2	-27	4	-1
C[C@H](NC(=O)c1ccco1)C(=O)Nc1nc(-c2ccccn2)cs1	-11	5	-2
O=C1C=CC2(C=C1)O[C@H](Cc1ccccc1)[C@@H](Cc1ccccc1)O2	13	-12	-31
COc1ccc(C(C(=O)NC2CCCCC2)n2c(=O)c(-c3ccco3)nc3ccccc32)cc1 (stereo not drawn)	3	-12	1
CCCCCc1c(-c2ccc(Br)cc2)ncn1CCc1ccccc1OC	39	-6	-28
O=C(NCCc1ccccc1O)c1cc2c(cc1[N+](=O)[O-])OCO2	2	2	2

Among those listed so far, 2 have a COOH group:
SMILES	Env fusion inh	MT1-MMP act inh	MT1-MMP act inh RFP
Cn1cnnc1SCc1ccc(C(=O)N/N=C(/CCC(=O)O)c2ccc(C(C)(C)C)cc2)cc1	15	0	7
O=C(O)c1cccc2c1-c1ccc(Cl)cc1C2=O	-2	2	4

An excerpt from above in order of the MT1-MMP act inh RFP value, ascending:
compound	Env fusion inh	MT1-MMP act inh	MT1-MMP act inh RFP
CCOC(=O)[C@]12CCCC=C1N(Cc1ccco1)C(=O)[C@H](CC(=O)N1CCC(c3ccccc3)CC1)C2	-27	4	-1
COc1ccc(C(C(=O)NC2CCCCC2)n2c(=O)c(-c3ccco3)nc3ccccc32)cc1 (stereo not drawn)	3	-12	1
CCOC(=O)/C(=N/Nc1ccc(Br)cc1)N1CC(C)OC(C)C1 (stereo not drawn)	-33	1	2

Single records, as listed above.
Results for CC(C)(C)NC(=O)C1c2ccccc2OCC(=O)N1Cc1ccc2c(c1)OCO2 (stereo not drawn) = Env fusion inh = -20; MT1-MMP act inh = 2; MT1-MMP act inh RFP = 4
Results for CC(=O)OCC1OC(COC(C)=O)(c2ccc(C)cc2)C(OC(C)=O)C1OC(C)=O (stereo not drawn) = Env fusion inh = -53; MT1-MMP act inh = 3; MT1-MMP act inh RFP = 2
